Source: PubChem
Mtb growth – Confirmatory growth inhibition assay against Mycobacterium tuberculosis H37Rv, potency (AID 1949); inhibition, % at 10 µg/mL, or IC50 in µg/mL where a hit was titrated; 100,000 compounds, 1.6% hits; most inactive calls were filed without a number and no value below 0 was filed;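 active = confirmed in a dose series; inconclusive = about 50% or more but not retested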;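 also: bacteria grown 7 days with compound before Alamar blue readout; 0% = untreated bacteria and 100% = reference antibiotic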
An asterisk follows results filed as active; i = inactive; ? = inconclusive.

SMILES	Mtb growth
COc1cc(C2C(C(=O)N3CCOCC3)=C(C)NC3=C2C(=O)CCC3)cc([N+](=O)[O-])c1O (stereo not drawn)	i
CCN(CC)S(=O)(=O)c1ccc(NC(=O)COc2ccc(C(C)(C)C)cc2)cc1	i
Cc1ccccc1OCC(=O)Nc1ccc(N2CCN(C(=O)c3ccccc3C)CC2)cc1	3%
Cc1cccc(Nc2nnc(C)c(=O)[nH]2)c1	i
COc1ccc(N(CC(=O)Nc2ccc(S(=O)(=O)N3CCCCC3)cc2)S(=O)(=O)c2ccccc2)cc1OC	1%
O=C(NCCc1ccccc1)C1CCN(C(=O)c2ccc(F)cc2)CC1	i
O=C(Cn1cc([N+](=O)[O-])cn1)n1cc(Br)cn1	0%
CC1=C(C#N)C(NC(=O)C2CCCCC2)(C(F)(F)F)C(=O)N1 (stereo not drawn)	i
Cc1nn2c(nc1=O)SCC2(O)c1ccccc1 (stereo not drawn)	i
Cc1ccc(C(=O)O)cc1NC(=S)NC(=O)c1ccc(-c2ccccc2)cc1	9%
CN1CCN(C(=O)c2ccccc2NC(=O)c2ccc(Cl)cc2)CC1	i
C=CCNC(=S)Nc1cccc(N)c1	i
O=c1[nH]c(N2CCc3ccccc3C2)nc(O)c1Cc1ccccc1	0%
CCNC(=O)C(C)Sc1ccc(Cl)cc1 (stereo not drawn)	i
Cc1cc(C)c(S(=O)(=O)NC2CC(C)(C)NC(C)(C)C2)cc1Br	2%
O=C(CSCc1cccc(Cl)c1)Nc1ccccc1C(=O)NC1CCCCC1	i
Cc1sc(NC(=O)CSc2ccc(Br)cc2)nc1-c1ccccc1	33%
CCc1ccc(NC(=O)COc2cc(C)c(Br)c(C)c2)cc1	i
S=C(NCC1CCCO1)N1CCN(C(c2ccccc2)c2ccccc2)CC1 (stereo not drawn)	i
COc1cc(Cl)c(C)cc1NC(=O)C(F)(F)F	i
COc1ccccc1CNC(=S)Nc1ccc(C)c(C)c1	i
CC(Sc1nc2ccc(I)cc2c(=O)n1-c1ccccc1)C(=O)N1CCOCC1 (stereo not drawn)	2%
CCCc1nnc(NC(=O)CSc2nc(-c3cccc(OC)c3)c(C#N)c(=O)[nH]2)s1	i
CN(C)c1cccc(Nc2ccc(C(F)(F)F)cc2[N+](=O)[O-])c1	i
c1ccc(OCc2nn3c(Cn4cnc5ccccc54)nnc3s2)cc1	i

(cont.)
SMILES	Mtb growth
CN(C(=O)Oc1ccc(OC(=O)c2ccccc2)cc1)c1ccccc1	i
CCOC(=O)Cc1cc(=O)[nH]c(/N=C(\N)Nc2ccc(OCC)cc2)n1	i
O=C1CCC(=O)N1OCCCOc1cccc(Oc2ccccc2)c1	6%
CC(NS(=O)(=O)c1ccc(OCC(=O)Nc2ccc(Cl)c(Cl)c2)cc1)c1ccccc1 (stereo not drawn)	2%
O=c1oc2ccccc2c2c1C(c1cccs1)Nc1ccc3ccccc3c1-2 (stereo not drawn)	i
O=C(CC(C(=O)O)N1CCNCC1)Nc1cccc(Cl)c1 (stereo not drawn)	6%
NS(=O)(=O)c1ccc(Nc2nc(-c3ccc(O)cc3O)cs2)cc1	i
Nc1ncnc(NCCc2c[nH]c3ccccc23)c1[N+](=O)[O-]	i
O=C(Nc1ccc(S(=O)(=O)N2CCCC2)cc1)c1cnn2c(C(F)F)cc(-c3ccccc3)nc12	3%
CS(=O)(=O)Nc1ccc(S(=O)(=O)NCC2CCCO2)cc1 (stereo not drawn)	i
O=C(Cc1c(F)cccc1Cl)Nc1nnc(C2CCCCC2)s1	i
COc1ccc(S(=O)(=O)N(CC(=O)Nc2cccc(N(C)S(C)(=O)=O)c2)c2ccccc2)cc1OC	i
CCOCC(=O)N1CCc2ccccc21	46%
CCOc1ccccc1NC(=O)COc1ccc2ccccc2c1Br	i
Cc1cc(=O)[nH]c(SCC(=O)c2cc(C(C)(C)C)c(O)c(C(C)(C)C)c2)n1	i
COC(=O)c1c(NC(=O)CCc2ccc(C)o2)sc(C)c1C	9%
COc1ccc(OC)c(N(CC(=O)Nc2ccc(Br)cc2)S(C)(=O)=O)c1	1%
Cc1ccc(Cl)cc1N1CCN(C(=S)Nc2cccc(Cl)c2Cl)CC1	i
O=C(c1ccc2c(c1)OCCO2)N1CCN(C/C=C/c2ccccc2)CC1	i
COC(=O)c1ccccc1NC(=O)C1CC(=O)N(c2ccc(OC)cc2)C1 (stereo not drawn)	i
CCOc1ccc(Br)cc1S(=O)(=O)N1CCN(c2ccc(C)cc2C)CC1	3%
CN(C)CCOc1cccc(Cl)c1	i
CS(=O)(=O)N1CCC(C(=O)N2CCc3ccccc3C2)CC1	i
CCOC(=O)c1ccc(NC(=O)c2ccccc2N(C)S(=O)(=O)c2ccccc2)cc1	i
CC(Oc1cccc(NC(=O)c2cccs2)c1)C(=O)c1ccccc1 (stereo not drawn)	6%

Among those listed so far, these contain nitrogen in an aromatic ring:
SMILES	Mtb growth
Cc1cccc(Nc2nnc(C)c(=O)[nH]2)c1	i
O=C(Cn1cc([N+](=O)[O-])cn1)n1cc(Br)cn1	0%
Cc1nn2c(nc1=O)SCC2(O)c1ccccc1 (stereo not drawn)	i
O=c1[nH]c(N2CCc3ccccc3C2)nc(O)c1Cc1ccccc1	0%
Cc1sc(NC(=O)CSc2ccc(Br)cc2)nc1-c1ccccc1	33%
CC(Sc1nc2ccc(I)cc2c(=O)n1-c1ccccc1)C(=O)N1CCOCC1 (stereo not drawn)	2%
CCCc1nnc(NC(=O)CSc2nc(-c3cccc(OC)c3)c(C#N)c(=O)[nH]2)s1	i
c1ccc(OCc2nn3c(Cn4cnc5ccccc54)nnc3s2)cc1	i
CCOC(=O)Cc1cc(=O)[nH]c(/N=C(\N)Nc2ccc(OCC)cc2)n1	i
NS(=O)(=O)c1ccc(Nc2nc(-c3ccc(O)cc3O)cs2)cc1	i
Nc1ncnc(NCCc2c[nH]c3ccccc23)c1[N+](=O)[O-]	i
O=C(Nc1ccc(S(=O)(=O)N2CCCC2)cc1)c1cnn2c(C(F)F)cc(-c3ccccc3)nc12	3%
O=C(Cc1c(F)cccc1Cl)Nc1nnc(C2CCCCC2)s1	i
Cc1cc(=O)[nH]c(SCC(=O)c2cc(C(C)(C)C)c(O)c(C(C)(C)C)c2)n1	i

The list continues:
SMILES	Mtb growth
CCc1ccc(NC(=O)CC2Sc3ccccc3NC2=O)cc1 (stereo not drawn)	i
COC(=O)c1cc(Cl)c(NC(=O)c2cc3ccccc3oc2=O)cc1OC	?
O=C(CNC(=O)c1ccccc1F)NCc1ccco1	10%
COc1ccc(OC)c(NS(=O)(=O)c2cccc3cccnc23)c1	i
CC(=O)Nc1ccc(NC(=O)COc2c(C)cccc2C)cc1	i
CCN1CCN(c2ccc([N+](=O)[O-])c(-n3nc(C)cc3C)c2)CC1	i
CC(C)CC(=O)N1CCN(c2c(F)c(F)c(F)c(F)c2F)CC1	8%
COc1ccccc1Cn1c(=O)oc2ccc(C)cc21	i
COC(=O)C1=C(C)N(c2ccc(C(=O)OC)cc2)C(=O)C1	?
O=C(NC(=S)NCCN1CCOCC1)c1ccccc1Cl	i
CCOC(=O)c1c(NC(=O)CSc2nnc(-c3ccncc3)o2)sc2c1CCC2	i
Cc1ccc(S(=O)(=O)n2c([N+](=O)[O-])cnc2C)c(C)c1C	i
COc1cccc(C(=O)Nc2ccc(NC(=O)Cc3ccccc3)cc2)c1	i
COc1ccc(NC(=O)CN(C2CCCCC2)S(=O)(=O)c2ccc(Br)cc2)cc1	i
CCCc1cc(=O)[nH]c(SCC(=O)Nc2ccccc2OCC)n1	i
COc1cccc(-c2nc3ccccc3s2)c1	i
Cc1oc2ccc(OC(C)C(=O)O)cc2c1C(=O)O (stereo not drawn)	10%
Cc1ccc(S(=O)(=O)N(CC(=O)NCc2cccnc2)c2cccc(Cl)c2Cl)cc1	i
CCc1cc(=O)oc2cc(Oc3ccc([N+](=O)[O-])cc3C(F)(F)F)ccc12	4%
CC(=O)C(C)Oc1cc(O)c2c(=O)cc(-c3ccccc3)oc2c1 (stereo not drawn)	26%
CCCCc1ccc(NC(=O)CN(C2CCCCC2)S(C)(=O)=O)cc1	0%
O=C(c1cc2ccccc2oc1=O)N1CCOCC1	i
O=C(NNC(=O)c1csc2ccccc12)Nc1ccc2c(c1)OCO2	i
O=C(Nc1ccc2[nH]c(=O)[nH]c2c1)c1cc2ccccc2o1	i
COc1ccccc1N1CCN(Cc2cc([N+](=O)[O-])c(O)c3ncccc23)CC1	46%

Next section:
SMILES	Mtb growth
Oc1ccc(Br)cc1CNCc1ccccc1	i
CC(Oc1ccccc1F)C(=O)NCc1ccc2c(c1)OCO2 (stereo not drawn)	i
Cc1ccc(S(=O)(=O)N2CCC(C(=O)Nc3ccc(Cl)cc3C)CC2)cc1	i
CCOc1ccc(-c2cc(C(=O)NC(C)(C)C)c3ccccc3n2)cc1	i
C=CCn1c(Cc2ccccc2)nnc1SCC(=O)Nc1ccc(CC)cc1	i
CCCN(CCC)C(=O)C(CC)Oc1ccccc1 (stereo not drawn)	i
CCn1c(SC)nnc1-c1nnc(SC)n1CC	0%
COc1ccccc1-c1nc(C#N)c(N2CC(C)CC(C)C2)o1 (stereo not drawn)	i
COc1ccc(Cl)cc1N1Cc2ccccc2C1	i
CC(=O)Nc1ccc(S(=O)(=O)Nc2ccc(S(=O)(=O)NCCc3ccccc3)cc2)cc1	i
CC(NS(=O)(=O)c1ccc(CCC(=O)Nc2ccc(Br)cc2F)cc1)c1ccccc1 (stereo not drawn)	i
COCCN1C(=O)c2oc3ccc(Br)cc3c(=O)c2C1c1ccccc1F (stereo not drawn)	i
COC(=O)c1ccc(NC(=O)CN(Cc2ccccc2C)S(=O)(=O)c2ccc(Cl)cc2)cc1	12%
O=C(c1ccc(NC(=S)NC2CCCCC2)cc1)N1CCCCC1	i
CCN(CC)C(=O)c1sc(NC(=S)NCc2ccc(S(N)(=O)=O)cc2)c(C(=O)OC)c1C	i
CC(C)C(NS(=O)(=O)c1ccc(Br)s1)C(C)C	3%
Cc1ccc(S(=O)(=O)n2cnc3cc(C)c(C)cc32)cc1	i
COc1cc(Cl)c(C)cc1NC(C)=O	i
NC(=O)COc1ccc(CNC2CCCC2)cc1	i
OCCNc1nc(N2CCCCC2)nc(N2CCCCC2)n1	6%
C=CCn1c(SCC(=O)Nc2ccc(Br)cc2)nnc1-c1ccccc1	i
Cc1ccc(S(=O)(=O)N(Cc2ccccc2)c2ccccc2C(=O)NC(C)(C)C)cc1	11%
COc1cccc(N=Cc2c(C)[nH]n(-c3ccccc3)c2=S)c1	i
CCOc1ccccc1N1CCN(C(=S)Nc2cccc(C(C)=O)c2)CC1	i
CCN1C(=O)/C(=C2/C(=O)N(c3ccc4ccccc4c3)N=C2C)c2cc([N+](=O)[O-])ccc21	i

Remaining list, next part:
SMILES	Mtb growth
Cc1ccc(C(C)C)c(OCC(=O)Nc2ccc(C(N)=O)cc2)c1	i
O=C(CCC1COc2ccccc2O1)Nc1cccnc1 (stereo not drawn)	i
Cc1nnc(NC(=O)C2COc3ccccc3O2)s1 (stereo not drawn)	1%
O=C1CC(N2CCSCC2)C(=O)N1CCc1ccccc1 (stereo not drawn)	i
Cn1c(Cc2ccccc2)n[nH]c1=S	15%
C1CCN(CC2COC3(CCCC3)O2)CC1 (stereo not drawn)	0%
Cc1ccc(Cc2cncc(O)c2)cc1	i
Cc1ccc2[nH]c3c(c2c1)CN(C)CC3	2%
CCOC(=O)c1c(CN(C)C)n(-c2ccccc2)c2cc(Br)c(OC)cc12	19%
Cc1ccc(-c2csc3nc(SCc4c(C)noc4C)n(-c4ccccc4)c(=O)c23)o1	45%
COc1ccc(C)cc1NC(=O)COc1ccc(S(=O)(=O)NC2CCCCC2)cc1	i
CCOc1ccccc1CNCCN1CCOCC1	i
Cc1ccc(NC(C#N)c2c(C)[nH]c(=O)[nH]c2=O)cc1 (stereo not drawn)	i
Cc1sc2nc3c4ccccc4c(Sc4ccccc4)nn3c(=O)c2c1C	0%
Cc1ccc(NC(=O)COc2ccc(CO)cc2Cl)cc1	i
Cc1cc(F)ccc1C(=O)NCc1ccccc1	i
COc1ccc(Cc2n[nH]c(=S)n2-c2ccccc2)cc1Cl	i
COc1cc(NC(=O)c2ccc(COc3ccccc3Cl)cc2)cc(OC)c1OC	1%
CCOc1cc(C=O)cc(Cl)c1OCC(N)=O	i
O=C(NC1CCCC1)c1cc(-c2ccc(Cl)cc2Cl)on1	i
CCOC(=O)N1CCN(CCC(=O)Nc2ccc(Br)c(C)c2)CC1	19%
COC(=O)c1cc(NC(=S)N2CCN(c3cccc(O)c3)CC2)cc(C(=O)OC)c1	i
CC(C)(C)Cc1nc(-c2ccc(Cl)cc2)no1	i
O=S(=O)(c1ccccc1)N1N=C(c2cccs2)CC1c1ccc(F)cc1 (stereo not drawn)	4%
CC(C)CC(=O)NCCNC(=O)c1ccccc1F	1%

Rewritten as labelled records: part of the list above
CCOC(=O)N1CCN(CCC(=O)Nc2ccc(Br)c(C)c2)CC1
  Mtb growth: 19%
COC(=O)c1cc(NC(=S)N2CCN(c3cccc(O)c3)CC2)cc(C(=O)OC)c1
  Mtb growth: i

The list continues.
SMILES	Mtb growth
O=C(CCc1ccccc1)Nc1nnc(SCC(=O)c2ccc(Cl)cc2)s1	1%
COc1ccc(-c2nn(-c3ccccc3)cc2C(=O)O)cc1OC	i
COc1ccc(NC(=O)c2nc3ncccn3n2)cc1Cl	1%
Cc1ccc(NC(=O)CSCC(=O)n2c3c(c4ccccc42)CCCC3)cc1	0%
COC(=O)Cn1c2ccccc2c2nc3ccccc3nc21	i
CCc1c(C)sc(NC(=O)CCCOc2ccc(Cl)cc2C)c1C(N)=O	i
Nc1nc(-n2cnnc2)nn1-c1ccccc1	i
Cc1cc(Br)c2c(c1)C(O)(CC(=O)c1cccs1)C(=O)N2 (stereo not drawn)	i
C=CCNC(=O)c1cc2cc(Br)cc(OC)c2oc1=O	i
Cc1ccc(-c2ccc(S(=O)(=O)N3CCCCC3)cc2)cc1	i
Cc1cc2nc(-c3ccc(NC(=O)c4ccccc4F)cc3)oc2cc1C	1%
Cc1ccc(S(=O)(=O)N2C(=O)CCC2C(=O)N2CCCCC2)cc1 (stereo not drawn)	i
CN1CCN(CCOc2ccc(C(=O)c3ccccc3)cc2)CC1	3%

Not all compounds are listed (hit frequency here may not be typical).
